# MgrA-DNA mod – S. aureus MgrA activity modulators, primary screen, biochemical, S. aureus Newman, fluorescence polarization; inhibition, %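 (about 10 µg/mL by stock and volumes)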; AID 602314, 2012; MgrA-DNA binding; hit rate 0.13% among 84,000;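 active = above 50% in either of two replicates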;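 note: 0% = protein plus DNA without compound and 100% = DNA alone without protein; higher means less MgrA bound to DNA so lower polarization; one replicate is shown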
# Sa helicase inh – inhibitors of S. aureus replicative helicase, primary screen, biochemical, fluorescence unwinding readout. replicative DNA helicase (DnaC/DnaB), Staphylococcus aureus. purified S. aureus helicase, fluorescence unwinding assay; about half of the hits fall short of the stated cut. inhibition, %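 (tested at about 80 µM)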. hit rate 0.05% among 120,000. AID 485395, 2010;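 active = both duplicates at 50% or more, or one of them with a favoured structure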;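 note: 0% = mean of negative control wells and 100% = mean of positive control wells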
# * marks the source's active call; other numbers are inactive results; / = no result given.
SMILES,MgrA-DNA mod,Sa helicase inh
COc1cccc(C2=NOC(C(=O)Nc3ccc4c(c3)OCO4)C2)c1 (configuration not stated),/,-10.0
COc1ccc(/C=C/C(=O)Nc2ccc(N3CCOCC3)c(Cl)c2)cc1,-1.1,5.0
CCC(C)NC(=O)c1csc2c1CCCC2 (configuration not stated),-0.3,15.0
COC(=O)C(C(C)C)N1C(=O)C2C3C=CC(C3)C2C1=O (configuration not stated),0.9,3.0
COc1ccc(N=Nc2c(C)nn(-c3ccc(C)cc3)c2N)cc1OC,/,7.0
Cc1nc2nc(C3CCN(C(=O)OC(C)(C)C)CC3)nn2c(C)c1CCC(=O)O,/,-11.0
Cn1c(SCCS(=O)(=O)c2ccc(OC(F)(F)F)cc2)nnc1C(F)(F)F,-0.8,/
Cc1ccc2[nH]cc(CCNS(C)(=O)=O)c2c1,2.5,-12.0
Cn1c(=O)cc(OCC(=O)N2CCC(N3CCCCC3)CC2)c2ccccc21,/,3.0
Clc1ccccc1CSc1nnc2n1CCCN2,-0.4,/
O=C(O)Cc1cn(-c2ncc(C(F)(F)F)cc2Cl)c2ccccc12,-0.8,/
NNC(=O)CSc1ccccc1[N+](=O)[O-],-1.6,/
COc1cc(NC(=S)NC(C)c2cn(C)nc2C)cc(OC)c1 (configuration not stated),1.1,7.0
CCOC(=O)C1CCN(C(=O)COc2cc(=O)n(C)c3ccccc23)CC1,/,16.0
COc1cc(OC)c(OC)cc1/C=N/NC(N)=O,/,-6.0
O=C(C1CCC1)N1CCC(Oc2nnc(-c3ccccc3)o2)CC1,/,-21.0
CCOc1ccccc1C(=O)NCCn1ccc2ccccc21,/,-19.0
COCCNC(=O)c1nc(-c2ccc(C(F)(F)F)cc2)no1,0.3,0.0
Cc1ccc(-c2nc(CN(C)C)cc(CN(C)C)c2O)cc1,-6.1,3.0
CC(OC(=O)c1ccncc1)C(=O)Nc1ccc(Cl)cc1Cl (configuration not stated),/,4.0
CCCSc1nc2cn(CC)nc2c(=O)n1Cc1ccccc1,/,21.0
Cc1ccccc1NC(=S)NCc1cccn1C,/,2.0
NC(=O)c1c(C(F)(F)F)cc(-c2ccccc2)nc1NCCO,0.8,-10.0
CCN1C(=O)c2cccc3c(S(=O)(=O)N4CCN(C)CC4)ccc1c23,/,-10.0
NC(=O)/C(=C/c1ccc2c(c1)OCO2)NC(=O)c1ccc(Br)cc1,-0.2,-14.0
CC(C)N(CC(N)=O)Cc1ccc(-c2ccccc2)cc1,/,13.0
O=C(O)c1ccc(N2C(=O)C3C4c5ccccc5C(CO)(c5ccccc54)C3C2=O)cc1 (configuration not stated),/,-18.0
COCCN1Cc2cccc(C(=O)NCc3cccnc3)c2C1=O,/,16.0
COc1cc(Cl)c(C)cc1NC(=O)COC(=O)c1n[nH]c2ccccc12,/,-9.0
O=C(c1cc(C(F)(F)F)cc(C(F)(F)F)c1)N1CCN(Cc2ccc3c(c2)OCO3)CC1,/,24.0
CCN(CC(=O)Nc1ccc(OC)cc1)CC(=O)Nc1ccc(C(N)=O)cc1,/,8.0
COc1ccc(OC)c(S(=O)(=O)NCC(c2ccc(F)cc2)N2CCN(C)CC2)c1 (configuration not stated),/,3.0
COCC(C)Nc1nc(-c2ccccc2F)cs1 (configuration not stated),/,3.0
CCCOc1ccc2oc(=O)c3c(c2c1)CCCN3C(=O)CN(C)c1ccccc1,/,4.0
CC(C)(C)C(CO)N=Cc1cccc(C=NC(CO)C(C)(C)C)n1 (configuration not stated),-0.3,/
NCC(c1ccccc1)N1CCOCC1 (configuration not stated),1.8,10.0
CC(C)n1c(NC(=O)Nc2ccccc2)c2ccccc2nc1=O,/,5.0
CC(C)c1ccc(C2C(C#N)=C3N=C(N)c4ccccc4N3C3=C2C(=O)CCC3)cc1 (configuration not stated),/,-5.0
COc1ccc(CC(=O)N(Cc2ccccc2)C(C)C)cc1,2.8,4.0
CC1CN(C(=O)COC(=O)c2ccccc2NS(C)(=O)=O)CC(C)O1 (configuration not stated),/,19.0
CCC(Sc1nc(O)cc(=O)[nH]1)C(=O)Nc1nnc(C(C)C)s1 (configuration not stated),2.4,-10.0
CCOC(=O)C1=C(C)Nc2ccccc2N=C1NC(=O)Cc1coc2cc(C)c(C)cc12,/,4.0
N#Cc1cccnc1N1CCN(C(=O)c2ccccc2)CC1,-1.1,/
C/C(N)=C(/C#N)C(=O)Cn1cc(S(=O)(=O)N2CCCC2)ccc1=O,/,-9.0
O=C(CC(c1ccccc1)c1ccccc1O)N1CCCCC1 (configuration not stated),/,-1.0
COc1ccc2nc(SCC(=O)N3CCCCC3)c(C#N)cc2c1,1.6,2.0
Nc1nc(-c2cccs2)c(CC(=O)O)s1,/,3.0
Nc1nn2c([n+]1N)N=C(c1ccccc1)C2,/,-12.0
OCc1ccccc1O[C@@H]1O[C@H](CO)[C@@H](O)[C@H](O)[C@H]1O,2.5,/
Cc1ccc(-n2cnnn2)cc1Cl,/,-23.0
NC(=O)c1ccsc1NC(=O)c1cc(=O)c2ccccc2o1,/,2.0
Cn1c(=O)n(C)c2cc(S(=O)(=O)N(Cc3ccccc3)C(=O)c3ccncc3)ccc21,/,-7.0
COc1cc2c(cc1OC)C(C(=O)N1CCCC1)C(c1ccccc1F)N(C)C2=O (configuration not stated),/,36.0
Cc1onc(-c2ccccc2Cl)c1C(=O)Nc1ccc2c(c1)COCO2,-2.6,/
Cc1ccc(NC(=O)C2CCN(c3ccc(N4CCOCC4)nn3)CC2)cc1C,/,-13.0
CCNC(=S)N1CCC(n2cnc3ccccc32)CC1,0.3,9.0
Cn1c(=O)c(C=Nc2ccccc2)c(O)c2ccccc21,-6.2,/
CCC(C)(C)n1nnnc1C(c1cccnc1)N1CCCC(C)C1 (configuration not stated),-2.2,3.0
CC1CCc2c(cc(-c3ccccc3)n2-c2ccc(C(=O)NCCN3CCN(C)CC3)cc2)C1 (configuration not stated),-1.2,5.0
CCS(=O)(=O)c1ccccc1C(=O)O,2.9,8.0

# Arranged by count of non-hydrogen atoms (high to low): part of the list above.
SMILES,MgrA-DNA mod,Sa helicase inh
O=C(O)Cc1cn(-c2ncc(C(F)(F)F)cc2Cl)c2ccccc12,-0.8,/
OCc1ccccc1O[C@@H]1O[C@H](CO)[C@@H](O)[C@H](O)[C@H]1O,2.5,/
CCS(=O)(=O)c1ccccc1C(=O)O,2.9,8.0

# 3 entries picked at random from the list so far, as already listed:
SMILES,MgrA-DNA mod,Sa helicase inh
Cn1c(=O)n(C)c2cc(S(=O)(=O)N(Cc3ccccc3)C(=O)c3ccncc3)ccc21,/,-7.0
OCc1ccccc1O[C@@H]1O[C@H](CO)[C@@H](O)[C@H](O)[C@H]1O,2.5,/
CCS(=O)(=O)c1ccccc1C(=O)O,2.9,8.0

# The list continues:
SMILES,MgrA-DNA mod,Sa helicase inh
CCn1nnc(NC(=O)c2sc3ccccc3c2Cl)n1,1.2,-17.0
CCCC(C(=O)O)c1ccccc1 (configuration not stated),2.0,-14.0
Cc1ccccc1-n1c(=O)c2ccccc2n2cnnc12,/,14.0
O=C(CN1C(=O)C2C3C=CC(C3)C2C1=O)Nc1ccccc1 (configuration not stated),/,9.0
CN1CCN(C(=O)c2cc3c(n(-c4ccccc4)c2=O)CCCC3=O)CC1,-1.2,4.0
COc1cc(CC(=O)N=c2sc3ccccc3n2C)cc(OC)c1OC,/,-14.0
COc1cccc(NC(=O)Cn2ncc3c4ccccc4n(C)c3c2=O)c1,1.9,12.0
O=C(Cn1cnc2onc(-c3ccc(F)cc3)c2c1=O)N1CCN(Cc2ccc3c(c2)OCO3)CC1,/,4.0
CCN1CCN(c2ccc(NC(=O)/C=C/c3ccccc3)cc2)CC1,-2.0,-3.0
CCC(=O)NC(Nc1sc2c(c1C(=O)OC)CCC2)(C(F)(F)F)C(F)(F)F,1.5,7.0
COc1cc(CN(C)Cc2cc3c(cc2O)OCO3)ccc1OC(F)F,/,11.0
CCC(=O)N(Cc1nc2ccccc2c(=O)[nH]1)Cc1ccccc1OC,1.5,12.0
Cc1nc2ccccc2n1CCOc1ccccc1,0.9,7.0
COc1cc(C)c2c(c1)CCC1C2CCC2(C)C1CC[C@]2(C)O (some centres not stated),-1.9,/
CCOC(=O)c1cc2c(=O)n3ccccc3nc2n(CC(C)C)c1=NC(C)=O,/,-21.0
CCc1ccc(NS(=O)(=O)c2cc3[nH]c(=O)c(=O)[nH]c3cc2C)cc1,/,12.0
O=C(CSc1nc2c(cnn2-c2ccccc2)c(=O)[nH]1)Nc1ccccc1,/,6.0
O=C(CSc1nnc(-c2ccco2)n1Cc1ccccc1)OCC(=O)c1c[nH]c2ccccc12,/,9.0
CCOC(=O)Cn1nc(C)c(NC(=O)c2ccc(OC)cc2)c1C,-0.9,-1.0
COC(=O)c1n[nH]nc1C(=O)OC,/,-11.0
CC(C)OC(=O)CN1CCN(C2CCCCC2)CC1,-0.4,1.0
Cc1ccc(-n2ncc3c(NCCO)ncnc32)c(C)c1,/,2.0
O=C(CNC(=O)c1ccc(Br)cc1)NC1=NCCS1,2.1,-11.0
COc1ccc(-n2cc3ccsc3c2)c(OC)c1,2.3,/
COc1ccc2nc3sc(C(=O)NC4CC4)cc3cc2c1,/,-5.0
CCc1nc2c(sc3nc(C)cc(C)c32)c(=O)o1,/,-23.0
Cc1cc(Br)c(NC(=S)NN)c(Br)c1,-0.4,/
CN(C)S(=O)(=O)N(CC(=O)Nc1ccccc1C(=O)N1CCOCC1)c1ccccc1,2.6,-11.0
O=C(Nc1ccc(O)c(-c2nc3ccccc3s2)c1)c1ccc2c(c1)OCCO2,-2.1,/
CCOc1cccc2cc(C(=O)NC(C)=O)c(=Nc3ccc(Cl)cc3Cl)oc12,-2.9,/
O=C(O)c1cc2c3c(c1)C1C=CCC1C(c1ccccc1F)N3CC1CC=CC21 (configuration not stated),74.1*,/
CSc1nc(-c2ccccc2)c(C#N)c(N2CCCCC2)n1,/,-19.0
C=CS(=O)(=O)c1cccc(Br)c1,/,2.0
Cc1cc(C)n(CNc2c(C)n(C)n(-c3ccccc3)c2=O)n1,-1.2,7.0
O=c1[nH]c2ccc(Nc3nc(CN4CCOCC4)nc4scc(-c5cccs5)c34)cc2[nH]1,/,5.0
Nc1nc2ncc3c(n2n1)CCc1ccccc1-3,-1.7,2.0
Cn1nc(-c2ccccc2F)c2cc(C(=O)N3CCc4ccccc4C3)sc21,/,-13.0
COc1ccc(S(=O)(=O)Nc2c(F)cc(F)cc2Br)cc1OC,1.9,/
CC(C)C(NC(=O)c1ccc(CN2CCN(c3ccccc3)CC2)cc1)C(C)C,-5.5,5.0
CC(=O)Nc1ccc(NC(=O)C(Cc2ccccc2)NS(=O)(=O)c2ccc3c(c2)CCC(=O)N3)cc1 (configuration not stated),/,-15.0
COc1ccc(NC(=O)c2c(C)nn(-c3ccc(F)cc3)c2-n2cccc2)c(OC)c1,/,19.0
COc1ccc(C2CC(C)=NN2C=O)cc1OC (configuration not stated),-0.5,11.0
Nc1ccccc1C(=O)NCC1CCCO1 (configuration not stated),/,0.0
CN(C(=O)c1ccc(-c2nn(C)c(=O)c3ccccc23)cc1)C1CCCCC1,/,-6.0
CCOC(=O)C1=C(C)N=c2s/c(=C/c3ccccc3OC(C)=O)c(=O)n2C1c1ccc(OC)c(OC)c1 (configuration not stated),3.1,/
CCOC(=O)c1oc2ccccc2c1N,2.2,-18.0
CCOC(=O)CSc1n[nH]c(=S)s1,5.8,/
CC1(C)Cc2cccc(OCC(=O)O)c2O1,/,6.0
O=C(NCCNc1ncc(C(F)(F)F)cc1Cl)C(F)(F)Sc1ccccc1,-1.7,/
Cc1n[nH]c(C)c1S(=O)(=O)Nc1ccccc1C(=O)Nc1ccc2c(c1)OCO2,/,7.0
CCCn1c(NC(=O)CN2C(=O)C3C4C=CC(C4)C3C2=O)nc2ccccc21 (configuration not stated),/,-5.0
COc1ccc(Cl)cc1S(=O)(=O)N1CCCC1,0.1,1.0
Cc1ccc(S(=O)(=O)NN2C(=O)c3ccccc3NC2(C)C)cc1,/,19.0
Cc1cccc(C(C)C)c1NC(=O)COC(=O)c1ccccc1N,-0.5,-18.0
O=C(Nc1ccc(S(=O)(=O)NC2=NCCCCC2)cc1)C1COc2ccccc2O1 (configuration not stated),/,2.0
COC(=O)c1c(NC(=S)NCCn2cc(Br)cn2)sc2c1CCC2,4.7,4.0
N=c1c2c3c(sc2ncn1CCCn1ccnc1)CCCCC3,3.1,5.0
CC(C)(C)c1cc2ncnc(NNC(=O)c3cccs3)c2s1,/,-18.0
Nc1ccc(-c2ccc(C(=O)O)s2)cn1,/,8.0
CCCCOc1ccccc1N1C(=O)CC(N2CCN(C(=O)OCC)CC2)C1=O (configuration not stated),/,0.0

# Arranged by the number under MgrA-DNA mod (descending): 3 from the list above.
SMILES,MgrA-DNA mod,Sa helicase inh
COC(=O)c1c(NC(=S)NCCn2cc(Br)cn2)sc2c1CCC2,4.7,4.0
CCOC(=O)c1oc2ccccc2c1N,2.2,-18.0
O=C(NCCNc1ncc(C(F)(F)F)cc1Cl)C(F)(F)Sc1ccccc1,-1.7,/

# Continued:
SMILES,MgrA-DNA mod,Sa helicase inh
CCC(=O)c1cn(CC(N)=O)c2ccccc12,-0.7,-11.0
CN(c1ccccc1)n1c(-c2ccccc2)nc2ccccc2c1=O,-0.3,20.0
CSc1cccc(NC(=O)CSc2ncn(-c3ccccc3)n2)c1,4.9,28.0
NNC(=O)CS(=O)(=O)Cc1ccc(-c2csnn2)cc1,-5.6,/
Cc1cc(N2CC(C)CC(C)C2)nc2ccc(NC(=O)CCC(=O)Nc3ccc(F)cc3Cl)cc12 (configuration not stated),1.5,7.0
CC1(C)CC(=O)C2=C(C1)OC(N)=C(C#N)C21C(=O)N(CO)c2ccccc21 (configuration not stated),1.4,13.0
CC1(C)CC2(CCCN(CCC(O)(c3ccccc3)c3ccccc3)C2)CCO1 (configuration not stated),-4.2,13.0
O=C(CSC1CCCCC1)c1ccc(Br)cc1,0.4,3.0
CCOc1ccc(S(=O)(=O)n2ccc(C)n2)c2ccccc12,-8.9,8.0

# Not all compounds are listed, so the mix of outcomes need not match the whole.
